RE007 growth inh: less growth of the S. pombe RE007 Vpr strain | S. pombe RE007 Vpr strain, BacTiter-Glo ATP luminescence, 24 h; control for the full effect not named in the record | Potency, µM (doses to about 92.2 µM), inactives show at the top dose activity change, negative = less growth | 360,000 compounds, 0.21% hits | AID 651644; active = well fitted falling curve with a large enough effect; inconclusive = small, poorly fitted or top-dose-only effect; inactive = no such curve, though single readings can be large or run the other way;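 further: on the % scale 0 is the no-effect control and ±100 the full control effect; nearly all actives have a fitted effect of over 50% in size; the assay follows cell death caused by Vpr and the record does not say whether a fall means rescue or toxicity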
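Fission yeast RE007 carrying one integrated HIV-1 vpr copy, seeded at OD 0.01 in PMG+AL medium with 23 nL pinned compound. Grown 24 h at 30 degrees; viability read by BacTiter-Glo luminescence after 5 min.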
MARV entry inh: inhibitors of Marburg virus binding or cell entry. Potency, µM (doses to about 37.8 µM), without a hit: top-dose activity change, negative = inhibition, usual class: inhibitors. 300,000 compounds, 1.8% hits. Marburg virus pseudotyped entry inhibition, cell reporter; control for the full effect not named in the record; about a third of the inactives were read at about 46 µM. AID 540276; active = well fitted inhibition curve with a large enough effect; inconclusive = small, poorly fitted or top-dose-only effect, or effect the other way; inactive = flat fitted curve, though single readings scatter; tested in HEK293 cells; about a fifth of its hits are not listed in these tables; further: on the % scale 0 is the no-effect control and ±100 the full control effect; luciferase read-out
NS1 function inh: blocks influenza NS1 protein function; 270,000 compounds, 0.4% hits; Potency, µM (series often up to 46.1 µM), for the others: at the highest dose activity, positive = more growth; S. cerevisiae slowed by influenza A NS1, growth recovery by OD600; active means well fitted rising curve with a large enough effect; inconclusive means small, poorly fitted or top-dose-only effect; inactive means no such curve, though single readings can be large or run the other way; further: nearly all actives have a fitted effect of over 50% in size
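OD600 was taken as the measure of yeast growth restored by compound in an NS1-expressing S. cerevisiae strain. Cells had been washed out of glucose medium and diluted 1:100 into galactose -URA medium, pH 6.0.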
LASV entry inh: Lassa virus entry inhibition. Lassa virus pseudotype entry inhibition, cell reporter; control for the full effect not named in the record. 300,000 compounds, 1.2% hits. Potency, µM (doses to about 37.9 µM), for the others: at the top dose activity change, negative = inhibition, hits mostly inhibitors; active means well fitted inhibition curve with a large enough effect; inconclusive means small, poorly fitted or top-dose-only effect, or effect the other way; inactive means flat fitted curve, though single readings scatter; tested in HEK293 cells; further: on the % scale 0 is the no-effect control and ±100 the full control effect; nearly all actives have a fitted effect of over 50% in size; luciferase read-out
SARS PLP yeast: SARS-CoV PLP inhibition in yeast; S. cerevisiae expressing SARS-CoV PLpro, growth rescue; control for the full effect not named in the record; Potency, µM (doses to about 32.9 µM), for inactives: at the top dose activity, positive = growth rescue; 330,000 compounds, 0.19% hits; AID 485353; active means well fitted rising curve with a large enough effect; inconclusive means small, poorly fitted or top-dose-only effect; inactive means no such curve, though single readings can be large or run the other way; further: 0% is about no effect; nearly all actives have a fitted effect of over 55% in size; growth read by luminescence after 48 h
StopGo reporter: FMDV 2A StopGo reporter, luciferase signal | human cells with a luciferase reporter of 2A StopGo recoding; control for the full effect not named in the record | Potency, µM (highest dose often 57.9 µM), for the others: at the highest dose signal change, negative = less light | 410,000 compounds, 1.2% hits | AID 1159524; active = well fitted falling curve with a large enough effect; inconclusive = small, poorly fitted or top-dose-only effect; inactive = no such curve, though single readings can be large or run the other way; tested in HEK293T cells; further: on the % scale 0 is the no-effect control and ±100 the full control effect; nearly all actives have a fitted effect of over 45% in size; luciferase light after 4 h
Cruzain inh noDet: inhibitors of Trypanosoma cruzi cruzain without detergent | P25779 | purified cruzain, Z-FR-AMC fluorescence, no detergent | Potency, µM, for the others: max response, negative = inhibition, hits mostly inhibitors | 200,000 compounds, 2.3% hits | AID 1476;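 further: plate controls were enzyme without inhibitor for no effect and buffer without enzyme for full effect; nearly all actives have a fitted effect of over 40% in size; top concentration of the series not given in the record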
Target sequence (P25779 123-467 limits assumed): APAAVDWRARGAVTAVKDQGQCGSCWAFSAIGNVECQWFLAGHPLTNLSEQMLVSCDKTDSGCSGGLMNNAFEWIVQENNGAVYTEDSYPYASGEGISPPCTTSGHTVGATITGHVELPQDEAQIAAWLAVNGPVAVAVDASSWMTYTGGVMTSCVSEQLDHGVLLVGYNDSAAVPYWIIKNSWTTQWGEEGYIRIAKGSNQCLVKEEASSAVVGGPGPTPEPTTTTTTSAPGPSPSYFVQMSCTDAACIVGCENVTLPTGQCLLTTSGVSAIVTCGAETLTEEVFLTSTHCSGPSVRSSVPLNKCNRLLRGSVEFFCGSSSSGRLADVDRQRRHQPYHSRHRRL
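Purified cruzain at 1.5 nM, pre-incubated 15 min with compound at room temperature in 100 mM sodium acetate pH 5.5, 5 mM DTT, 0.00005% Triton X-100. Reaction started with 2 uM Z-FR-AMC; AMC fluorescence increase over 60 s gives rate.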
Cruzain inh Det: cruzain (T. cruzi) inhibition with detergent; P25779; purified cruzain, Z-FR-AMC fluorescence, 0.01% Triton; Potency, µM, for the others: max response, negative = inhibition, most hits filed as inhibitors; 200,000 compounds, 0.43% hits; AID 1478;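 further: plate controls were neutral wells for no effect and buffer without enzyme for full effect; nearly all actives have a fitted effect of over 40% in size; top concentration of the series not given in the record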
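Enzyme 1.5 nM, Z-FR-AMC 2 uM, NaOAc 100 mM pH 5.5, DTT 5 mM, Triton X-100 0.01%; 15 min RT compound preincubation; kinetic ex360/em450, 60 s delta.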
* = called active by the depositor; ? = inconclusive; · = not tested or not shown; & = joins results of further samples; [ ] = remark or other dose. Unless noted, the call rests on the fitted dose curve; in most records, active means well fitted curve in the direction sought with a large enough effect; inconclusive means small, poorly fitted or top-dose-only effect, or another doubt; inactive means no such curve, though single readings can be large; an effect the other way counts as inactive or inconclusive. Potency means the concentration at half of the fitted maximal effect. Rows are unselected, and some 4.8% of all compounds hit somewhere here.

SMILES	RE007 growth inh	MARV entry inh	NS1 function inh	LASV entry inh	SARS PLP yeast	StopGo reporter	Cruzain inh noDet	Cruzain inh Det
Cn1c(CNC(=O)c2cccs2)nnc1SCC(=O)Nc1ccc(Cl)cc1	-5.7%	?	-10.8%	-12.2%	19.1%	-13.9%	-13.4%	-0.2%
O=C(NCc1ccccn1)c1n[nH]c(=O)c2ccccc12	-13.2%	·	2.3%	·	0.7%	3.2%	·	·
O=c1[nH]c(C2CCN(S(=O)(=O)/C=C/c3ccccc3)CC2)nc2c1nnn2Cc1ccccc1	12.0%	-29.8%[46.1 µM]	17.7%	?	-0.4%	-21.8%	·	·
CC1(C)CC(CC(=O)NC(=S)Nc2ccc([N+](=O)[O-])cc2)C(=O)O1 (stereo not given)	-14.4%	19.1%[46.1 µM]	7.8%	-3.2%	-3.1%	-16.6%	2.7%	-1.5%
COc1ccc(C(=O)Nc2ccccc2C(=O)NC(C)C)cc1OC	11.5%	-13.7%[46.1 µM]	-5.3%	?	2.6%	-11.2%	-2.9%	1.9%
O=C(Nc1ccc(O)cc1)/C(=C\c1ccncc1)NC(=O)c1ccccc1	-11.3%	-4.7%[46.1 µM]	·	3.6%	0.4%	18.1%	·	·
CCOc1ccccc1NC(=O)Nc1ccc2c(c1)CCC2	-1.5%	·	-2.8%	·	1.2%	17.8%	·	·
Cc1ccc(C(=O)Nc2ccc(C)c(S(=O)(=O)N3CCOCC3)c2)c(C)c1	-10.2%	·	8.9%	·	15.8%	6.5%	·	·
CCOC(=O)c1cn(-c2nc(-c3ccc(Cl)cc3)cs2)c2c(F)c(N3CC(C)OC(C)C3)c(F)cc2c1=O (stereo not given)	·	-7.7%	1.9%	·	2.1%	·	-2.9%	-2.1%
C/C(=N\NC(=O)c1ccccc1O)c1ccc(NC(=O)Cc2ccccc2)cc1	8.1%	-20.8%	-13.1%	-1.4%	-0.2%	2.0%	·	·
CN(/N=C/c1ccncc1)c1cnn(-c2ccc(F)c(Cl)c2)c(=O)c1Cl	-8.2%[3.69 µM]	-7.1%	0.7%	0.3%	0.8%	-11.2%	7.1%	-0.1%
Cc1ccc(Cn2c(=O)n(CC3CCC(C(=O)N4CCC(C)CC4)CC3)c(=O)c3sccc32)cc1 (stereo not given)	·	·	·	4.1%[46.1 µM]	·	?	-4.2%	-3.3%
CC(C)NC(=O)COc1coc(CN2CCN(c3ccccc3F)CC2)cc1=O	10.3%	0.0%[46.1 µM]	-1.3%	20.9%[46.1 µM]	-0.7%	14.5%	·	·
Clc1ccc(OCCN2CCOCC2)cc1Cl	1.6%	-0.7%	-4.7%	-10.3%	-1.5%	34.2%[activator]	-0.8%	0.1%
Cc1ccc(NC(=O)c2ccc(Cl)cc2Cl)c(C(=O)c2ccccc2)c1	·	·	·	-20.3%[46.1 µM]	·	-10.0%	-3.5%	-3.5%
CCC(C)(C)n1nnnc1CN(Cc1cc2cc(OC)ccc2[nH]c1=O)C1CCCC1	-10.9%	-13.5%	-32.3%	-16.6%	4.1%	·	12.2%	-2.5%
CC(Sc1ccc(Cl)cc1)C(=O)NCc1ccc2c(c1)OCO2 (stereo not given)	-7.9%	?	-48.1%	12.5%	1.8%	-13.7%	-6.7%	0.3%
O=C(Nc1ccc(Br)cc1)C1CCCN1S(=O)(=O)c1ccc(F)cc1 (stereo not given)	·	-10.6%[46.1 µM]	·	7.6%[46.1 µM]	·	-14.4%	-4.7%	-7.0%
CSc1nc2ccc3nc(NC(=O)c4ccccc4)sc3c2s1	-2.9%	·	?	·	-3.2%	50.1%[activator]	-1.6%	-10.4%
CCOc1ccc2[nH]c(=O)c(CN(CCO)C(=O)c3ccccc3F)cc2c1	0.6%	-5.0%	-7.3%	-20.8%	1.2%	-0.3%	-2.1%	-10.3%
Cc1ccc(C)c(N2CCN(S(=O)(=O)c3ccc4c(c3)CC(C)N4C(=O)C3CC3)CC2)c1 (stereo not given)	12.5%	?	13.0%	?	5.1%	-26.0%	·	·
O=c1[nH]c(O)c(C=Nc2ccccc2Oc2ccccc2)c(=O)[nH]1	-19.9%	4.0%[46.1 µM]	3.9%	18.4%	1.0%	-2.8%	·	·
Cc1cccc(C(=O)Nc2ccc(C(=O)/C=C/c3ccncc3)cc2)c1	-12.6%	?	-8.2%	?	-6.4%	10.5%	·	·
CCCC(O)c1nc2ccccc2n1Cc1ccccc1OC (stereo not given)	·	-18.7%[46.1 µM]	·	-0.2%[46.1 µM]	·	0.0%	-4.2%	-1.2%
Cc1ccccc1CNC(=O)c1cc2cccc3c2n1CC(C)S3 (stereo not given)	·	·	·	-4.2%[46.1 µM]	·	-8.8%	?	-9.6%
CNC(=O)NC(=O)CSc1nc2cc(C(=O)OC)ccc2c(=O)n1-c1ccccc1	-3.3%	14.4%	2.3%	5.9%	3.4%	2.0%	29.7%	2.7%
Cc1cc([N+](=O)[O-])ccc1NC(=O)C1CCCO1 (stereo not given)	14.8%	9.5%	2.6%	10.5%	-14.5%	-20.8%	-11.6%	-2.2%
Cc1cc(CNC(=O)C(C)n2nc(C)c([N+](=O)[O-])c2C)c2ccccc2n1 (stereo not given)	-7.0%	-5.1%[46.1 µM]	·	-5.5%	4.6%	?	·	·
Cc1cc(C)nc(Nc2n[nH]c(COc3cccc4ccccc34)n2)n1	-13.7%	?	-9.7%	14.6%	4.2%	-9.7%	-2.8%	6.3%
O=C1CC(c2ccc3c(c2)OCCO3)Oc2ccccc21 (stereo not given)	4.0%	·	-10.3%	·	-14.3%	52.1%[activator]	·	·
N#C/C(=C\c1ccc(N2CCOCC2)o1)c1nc2ccccc2[nH]1	1.6%	?	-7.8%	?	-7.5%	?	-10.9%	-17.4%
COc1cc(OC)cc(C(=O)NNC(=O)c2cc3ccccc3cc2O)c1	-0.7%	·	2.1%	·	17.5%	-1.2%	·	·
CCc1nc2oc3ccc(C)cc3c(=O)c2cc1C(=O)OC	-8.8%	19.3%	2.2%	?	0.2%	62.4%[activator]	·	·
Cc1ccc(NC(=O)C2CCCN(S(=O)(=O)c3cccc4nsnc34)C2)c(C)c1 (stereo not given)	·	-1.2%[46.1 µM]	·	12.1%[46.1 µM]	·	-22.4%	-1.8%	-2.6%
COc1ccc(C)cc1NC(=O)c1oc2ccc(S(=O)(=O)N3CCC4(CC3)OCCO4)cc2c1C	·	·	·	8.0%[46.1 µM]	·	-12.6%	10.3%	-2.6%
CC(C)(C)C1CCC(C(=O)Nc2ccccc2)CC1 (stereo not given)	6.5%	11.4%	-52.7%	-15.2%	-8.8%	6.5%	16.6%	-7.9%
O=C(N/N=C/c1cccc([N+](=O)[O-])c1)c1cccs1	-16.1%	25.9%	9.4%	4.5%	4.0%	64.6%[activator]	-3.3%	-5.5%
N#Cc1c(-c2ccc(Cl)cc2)cc(-c2ccccc2)nc1SCC(=O)O	4.9%	·	-3.5%	·	3.4%	-12.8%	·	·
COc1ccc(S(=O)(=O)NC(C)C(=O)NCc2ccncc2)cc1C (stereo not given)	-17.5%	-2.1%[46.1 µM]	7.5%	13.6%[46.1 µM]	-1.1%	-8.0%	·	·
CC1=C(C(=O)N2CCOCC2)C(c2cccs2)NC(=O)N1 (stereo not given)	3.4%	3.0%	-7.0%	23.7%	-4.8%	-0.6%	3.8%	-0.9%
CCCCN(CC)CCNC(=O)c1cc2c(=O)[nH]c3ccccc3c2s1	-9.8%	1.3%[46.1 µM]	0.5%	-25.6%	0.6%	-6.6%	·	·
COc1ccc(C2C(C(N)=O)=C(C)Nc3nc(CCCO)nn32)cc1OC (stereo not given)	6.0%	9.2%[46.1 µM]	3.3%	5.3%[46.1 µM]	-1.0%	-11.6%	·	·
COc1cc(/C=N/O)ccc1Oc1ccc([N+](=O)[O-])cc1[N+](=O)[O-]	10.8%	?	·	-17.1%	-12.2%	?	·	·
CCOC(=O)NN1C(=O)c2ccccc2NC1c1ccc(OC)cc1 (stereo not given)	8.7%	3.8%	-9.7%	-2.0%	-7.5%	-19.4%	2.2%	3.0%
Cc1ccccc1NC(=O)c1ccc(NC(=O)c2ccco2)cc1	-7.6%	-0.8%	-1.4%	6.1%	-14.4%	21.3%	10.4%	-2.3%
Cc1c(-c2nsc(NC(=O)c3ccc(Cl)cc3)n2)nnn1-c1ccc(C(C)C)cc1	·	·	·	-0.8%[46.1 µM]	·	-14.3%	?	3.2%
O=C(NCc1cccnc1)C(=O)c1c[nH]c2ccccc12	0.4%	·	-6.6%	·	3.6%	-17.5%	·	·
CC(CN1CCCCC1)OC(=O)c1ccco1 (stereo not given)	-4.7%	27.7%[46.1 µM]	5.7%	·	0.3%	-3.8%	·	·
CCCNC(=O)c1ccc(COc2ccc(C)cc2)o1	3.3%	·	-38.6%	·	-3.6%	-8.5%	·	·
CC(C)c1ccccc1NC(=O)COc1ccc2c(=O)c(Oc3ccc4ccccc4c3)coc2c1	·	?	-0.9%	-16.4%	10.6%	·	31.6µM*	-2.7%
O=C(NCc1cccs1)C1CCCN(S(=O)(=O)c2ccc(Br)s2)C1 (stereo not given)	17.2%	1.7%&1.7%	-0.4%	-25.6%	·	0.0%	-12.6%	1.2%
S=c1[nH]nc(-c2ccco2)n1/N=C/c1cccc(Cl)c1	2.0%	?	1.6%	6.7%	-1.3%	-17.7%	·	·
CC(=O)Nc1c(O)c2ccccc2[nH]c1=O	-9.9%	0.2%[46.1 µM]	-2.1%	-0.6%	0.3%	0.5%	·	·
O=C(NNc1ccccc1[N+](=O)[O-])Nc1ccc(F)cc1	-10.9%	3.8%	-21.2%	0.2%	-11.4%	-17.2%	-11.3%	-5.2%
Fc1ccc(N=C2NN=C(c3cc(F)ccc3F)CS2)cc1	-26.9%	?	-24.4%	?	-55.8%	23.2%	?	-7.1%
COC(=O)c1sc(SC)c(-c2ccon2)c1C	-21.9%	-0.5%&-0.5%	-4.3%	4.2%	0.4%	-8.0%	·	·
COc1c(F)c(F)c(C(=O)O)c(Nc2ccccc2C)c1F	-8.2%	0.8%	-7.0%	-18.3%	-1.4%	-4.2%	1.7%	-3.0%
Fc1ccc(-c2csc(-c3ccncc3)n2)cc1	-10.5%	-12.9%	·	14.0%	0.7%	57.2%[activator]	·	·
